Screening data as filed in PubChem.
Rango complex inh = prevents formation of the Rango-importin beta complex | Potency, µM (top dose mostly 92.2 µM), inactives show at the highest dose inhibition of complex formation | 340,000 compounds, 0.031% hits | Q14974 | Rango CFP/YFP FRET sensor + importin beta, 45 min; active = rising FRET ratio curve, often small or poorly fitted; inconclusive = mostly compound fluorescence or quenching in the first reads; inactive = flat curves in all reads;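 note: potency is the fitted concentration of half-maximal effect; 0% = DMSO wells and 100% = buffer wells lacking importin beta; nearly all actives have a fitted effect of over 15% in size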
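FRET biosensor (snurportin 1 IBB flanked by EYFP and cerulean), 50 nM, with compound 5 min, then 0.125 microM importin beta in PBS, 1 mM DTT, 0.02% Tween-20, 0.1% BSA. CFP/YFP ratio read after 45 min at room temperature; pre-read flags interference.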
Rango dissoc inh = inhibitors of RanGTP-induced Rango-importin beta complex dissociation. Potency, µM (highest dose often 46.1 µM), for inactives: top-dose activity change, negative = inhibition. O95149+P62826. 340,000 compounds, 0.071% hits. Biochemical FRET Rango-importin beta, RanGTP-induced dissociation; active means falling FRET ratio curve, often poorly fitted, with flat reads before Ran was added; inconclusive means other falling curves, or compound fluorescence or quenching; inactive means flat or rising ratio curve;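 note: potency is the fitted concentration of half-maximal effect; % of control where 0% means no effect; nearly all actives have a fitted effect of over 45% in size; -100% = wells without RanGTP and RCC1; the record marks most hits as doubtful in a second field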
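Recombinant Rango FRET biosensor (EYFP–snurportin 1 IBB–cerulean CFP10) at 0.1 uM premixed with 0.25 uM importin beta in PBS, 1 mM DTT, 0.02% Tween-20, 0.1% BSA. Compound added 5 min; RanGTP-RCC1 (0.6 uM Ran, 2 mM GTP, 0.2 uM RCC1) then triggers release, read at 45 min.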
miR-21 FLuc = raises the signal of a miR-21 reporter. Potency, µM (highest dose often 38.3 µM), for the others: at the highest dose reporter change, positive = more light. HeLa miR-21 FLuc reporter, luciferase, 48 h. 340,000 tested, under 10 active. AID 2288; active = well fitted rising curve with a large enough effect; inconclusive = small, poorly fitted or top-dose-only effect; inactive = no such curve, though single readings can be large or run the other way;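 note: % of control where 0% means no effect; miR-21 action dims this reporter so a rising signal means less miR-21 action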
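Luminescence from a firefly luciferase reporter carrying a miR-21 binding site downstream, stably expressed under a CMV promoter in HeLa cells that make miR-21 endogenously, reports miRNA modulation after 48 h compound exposure up to approximately 40uM final.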
GLA inh pH 4.5 = blocks human alpha-galactosidase A at pH 4.5. 230,000 tested, under 10 active. purified enzyme, 4-MU-alpha-Gal fluorescence, pH 4.5. activity change, negative = inhibition, % at 105 µM. AID 1467; inconclusive = small, poorly fitted or top-dose-only inhibition, or a rising curve; inactive = flat fitted curve, though single readings scatter; no compound was filed as active;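 note: 0% = full activity with enzyme and -100% = basal without enzyme; dose as in the result columns while the protocol names 77 µM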
Target sequence (P06280 whole entry, looked up): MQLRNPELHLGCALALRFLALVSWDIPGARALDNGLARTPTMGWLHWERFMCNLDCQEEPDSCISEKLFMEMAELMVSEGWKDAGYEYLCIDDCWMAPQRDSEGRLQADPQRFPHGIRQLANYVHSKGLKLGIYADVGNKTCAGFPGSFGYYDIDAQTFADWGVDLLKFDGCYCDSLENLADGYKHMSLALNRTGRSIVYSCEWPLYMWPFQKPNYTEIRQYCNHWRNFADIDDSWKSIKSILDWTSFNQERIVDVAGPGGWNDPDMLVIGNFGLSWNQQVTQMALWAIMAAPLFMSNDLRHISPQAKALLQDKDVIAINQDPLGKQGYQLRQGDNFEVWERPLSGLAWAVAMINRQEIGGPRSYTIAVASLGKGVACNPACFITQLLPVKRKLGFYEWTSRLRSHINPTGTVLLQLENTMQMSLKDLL
An asterisk follows results filed as active; ? = inconclusive; . = not tested or not shown; & = joins results of further samples. A portion of the library; rates above refer to the full screens.

Each structure is followed by: Rango complex inh	GLA inh pH 4.5	miR-21 FLuc	Rango dissoc inh
#1 CSc1nsc2nc(=O)c(/C=C3\C=Nc4ccccc43)c(N)n12
 : ?	-8	-19%	?
#2 CCOC(=O)c1nc(NCc2ccccc2F)c2ccccc2n1
 : -2.8%	11	10%	-3%
#3 CCOC(=O)C1CC2CC(C1)CN(C(=O)C1CCCCC1)C2 (stereo not drawn)
 : 5.1%	2	-2%	1%
#4 CCN(CC)CCN(Cc1cc2cc3c(cc2[nH]c1=O)OCO3)C(=S)NC
 : ?	.	-4%	-13%
#5 CN(C)/C=C/C(=O)c1cccc(Cl)c1
 : ?	-9	-18%	?
#6 COc1ccccc1NC(=O)C/C(C)=N/NC(=O)c1ccccn1
 : -4.2%	.	-74%	-5%
#7 COc1cccc([C@@H]2Oc3ccc(OC)cc3C(=O)[C@H]2OC(=O)NCc2ccc3c(c2)OCO3)c1
 : .	-6&-7	-80%	.
#8 O=C(N/N=C\C=C\c1ccc2c(c1)OCO2)c1cccnc1
 : -0.3%	-1	-11%	7%
#9 COc1ccccc1Cn1c(=S)[nH]c2cc(C(=O)NCc3cccnc3)ccc2c1=O
 : 2.6%	3	-3%	-8%
#10 O=C(c1ccccc1-c1ccccc1)N1CCOCC1
 : -2.5%	-2	-2%	-2%
#11 c1ccc(CSc2nnc(-c3ccco3)n2Cc2ccccc2)cc1
 : -0.8%	-11	-55%	3%
#12 COc1cc(/C=N/NC(=S)NCCN2CCOCC2)ccc1O
 : -4.7%	2	-8%	4%
#13 COc1ccc(C(=O)NC(=O)COC(=O)c2ccc3ncsc3c2)cc1
 : .	4	-13%	.
#14 CCCCC(=Nc1ccccc1OC)C1=C(O)CC(c2ccccc2)CC1=O (stereo not drawn)
 : 1.3%	4	-2%	29%
#15 S=c1[nH]ncn1/N=C/c1ccc(Br)cc1
 : -0.9%	5	-18%	1%
#16 O=C(c1ccc2nc(N3CCOCC3)sc2c1)N1CCC(Cc2ccccc2)CC1
 : ?	-18	-6%	7%
#17 N#Cc1ccccc1S(=O)(=O)N1CCN(S(=O)(=O)c2ccc(Br)c(C(=O)O)c2)CC1
 : 0.2%	.	1%	0%
#18 CN(C(=O)c1cccc(NC(=O)Cc2ccc(NC(=O)C3CCCN(C(=O)c4ccccc4)C3)cc2)c1)C1CCC1 (stereo not drawn)
 : 0.5%	.	.	10%
#19 Cc1ccccc1CSCC(=O)N/N=C/c1cccs1
 : 2.9%	-9	-7%	10%
#20 CC(C)c1ccccc1NC(=O)COC(=O)c1cc([N+](=O)[O-])ccc1N1CCOCC1
 : 1.9%	.	.	-2%

Single values from the list.
no. 12 in Rango dissoc inh = 4%
no. 9 in Rango complex inh = 2.6%

Further entries
Each structure is followed by: Rango complex inh	GLA inh pH 4.5	miR-21 FLuc	Rango dissoc inh
#21 Cc1nc(N2CCN(C)CC2)c2c(C)c(C(=O)Nc3ccc(F)cc3)sc2n1
 : -0.1%	3	-6%	5%
#22 CN(C)S(=O)(=O)n1cc(/C=C(\NC(=O)c2ccccc2F)C(=O)N2CCOCC2)c2ccccc21
 : -0.5%	.	4%	-11%
#23 Cc1ccc(/C(N)=N/OC(=O)c2ccc(C)cc2Cl)cc1
 : -0.6%	1	-63%	-15%
#24 O=C(N/N=C/c1cccnc1)C(O)c1ccccc1 (stereo not drawn)
 : -3.2%	-5	-5%	20%
#25 CCC1CCCCN1CCNC(=O)CCS(=O)(=O)c1ccc(Br)cc1 (stereo not drawn)
 : 0.3%	5	1%	3%
#26 Cc1ccc(C(=O)NNC(=O)C2CC2)cc1Br
 : -5.1%	.	-5%	14%
#27 Cc1cccc(OS(=O)(=O)NC(=O)OCC2CCCN3CCCCC23)c1 (stereo not drawn)
 : -2.4%	4	-1%	31%
#28 Oc1ccc2ccccc2c1N=Nc1nccs1
 : 0.0%	1	12%	3%
#29 O=C(COc1ccc(-n2cnnn2)cc1)Nc1cc(Cl)cc(Cl)c1
 : 3.1%	.	.	-2%
#30 Cc1cc(/C=N/NC(N)=O)c(C)c(CO)c1
 : 2.9%	7	-5%	-8%
#31 CCOc1ccc(C(=O)Nc2ccc(CN3CCOCC3)cc2)cc1Br
 : -1.8%	.	11%	-8%
#32 Cn1c(C(=O)N2CCN(c3ncccn3)CC2)cc2c(=O)n(C)c3ccccc3c21
 : -3.9%	2	0%	-1%
#33 O=C1c2ccccc2S(=O)(=O)c2cc(N3CCC4(CC3)OCCO4)ccc21
 : ?	.	.	?
#34 N#Cc1nc(-c2ccc(Cl)cc2)oc1NCc1ccco1
 : 0.1%	1	-55%	4%
#35 COc1cc(S(=O)(=O)N2CCC(c3nc4ccccc4s3)CC2)ccc1S(=O)(=O)N1CC(C)CC(C)C1 (stereo not drawn)
 : 2.5%	5	1%	3%
#36 COc1cccc(C(=O)Nc2c(C)nn(-c3ccccc3)c2C)c1
 : -5.7%	-4	-2%	1%
#37 O=C(NCC(O)c1ccccc1)c1ccc(Cl)c(S(=O)(=O)N2CCCC2)c1 (stereo not drawn)
 : 5.1%	.	.	-19%
#38 Oc1ccc(C=NNc2nc3ccccc3s2)c(O)c1
 : ?	.	.	-1%
#39 CCOC(=O)C(C)Oc1cccc2c(=O)n(CC(=O)NCc3ccccc3)ccc12 (stereo not drawn)
 : 0.7%	5	24%	3%
#40 COc1ccc(-c2nnc(SCC(=O)N3CCOCC3)n2C)cc1OC
 : 1.8%	0	-1%	13%

Arranged by SMILES length (low to high): part of the list above.
Each structure is followed by: Rango complex inh	GLA inh pH 4.5	miR-21 FLuc	Rango dissoc inh
#23 Cc1ccc(/C(N)=N/OC(=O)c2ccc(C)cc2Cl)cc1
 : -0.6%	1	-63%	-15%
#27 Cc1cccc(OS(=O)(=O)NC(=O)OCC2CCCN3CCCCC23)c1 (stereo not drawn)
 : -2.4%	4	-1%	31%
#21 Cc1nc(N2CCN(C)CC2)c2c(C)c(C(=O)Nc3ccc(F)cc3)sc2n1
 : -0.1%	3	-6%	5%

Filtered by structure: the compounds so far with bromine (five)
Each structure is followed by: Rango complex inh	GLA inh pH 4.5	miR-21 FLuc	Rango dissoc inh
#15 S=c1[nH]ncn1/N=C/c1ccc(Br)cc1
 : -0.9%	5	-18%	1%
#17 N#Cc1ccccc1S(=O)(=O)N1CCN(S(=O)(=O)c2ccc(Br)c(C(=O)O)c2)CC1
 : 0.2%	.	1%	0%
#25 CCC1CCCCN1CCNC(=O)CCS(=O)(=O)c1ccc(Br)cc1 (stereo not drawn)
 : 0.3%	5	1%	3%
#26 Cc1ccc(C(=O)NNC(=O)C2CC2)cc1Br
 : -5.1%	.	-5%	14%
#31 CCOc1ccc(C(=O)Nc2ccc(CN3CCOCC3)cc2)cc1Br
 : -1.8%	.	11%	-8%

Results in GLA inh pH 4.5, miR-21 FLuc and Rango complex inh, for some of the entries so far:
item | Molecule | GLA inh pH 4.5 | miR-21 FLuc | Rango complex inh
29 | O=C(COc1ccc(-n2cnnn2)cc1)Nc1cc(Cl)cc(Cl)c1 | . | . | 3.1%
30 | Cc1cc(/C=N/NC(N)=O)c(C)c(CO)c1 | 7 | -5% | 2.9%
31 | CCOc1ccc(C(=O)Nc2ccc(CN3CCOCC3)cc2)cc1Br | . | 11% | -1.8%
32 | Cn1c(C(=O)N2CCN(c3ncccn3)CC2)cc2c(=O)n(C)c3ccccc3c21 | 2 | 0% | -3.9%
33 | O=C1c2ccccc2S(=O)(=O)c2cc(N3CCC4(CC3)OCCO4)ccc21 | . | . | ?
34 | N#Cc1nc(-c2ccc(Cl)cc2)oc1NCc1ccco1 | 1 | -55% | 0.1%

Additional records follow:
Each structure is followed by: Rango complex inh	GLA inh pH 4.5	miR-21 FLuc	Rango dissoc inh
#41 CC(C)CC(N=Cc1c(O)c2ccccc2oc1=O)C(=O)O (stereo not drawn)
 : -0.9%	2	14%	12%
#42 Cc1ncc(C[n+]2ccc(C)c(C)c2)c(N)n1
 : 2.1%	.	.	-9%
#43 COc1cc(OC)c2nc(C)c3c(c2c1)N(c1ccc(O)cc1)CC3
 : -2.4%	-16	8%	14%
#44 CC1=C(C(=O)OC(C)C)C(c2cccnc2)n2ncnc2N1 (stereo not drawn)
 : -4.0%	3	-1%	-13%
#45 CC(=O)c1ccc(N=Nc2ccc(N(C)C)cc2)cc1
 : -2.1%	-2	-63%	5%
#46 CC(NC(=O)CNC(=O)C1CCCCC1)c1cccc(Cl)c1 (stereo not drawn)
 : 0.0%	.	0%	10%
#47 Cc1ccc(NC(=O)CSCC(=O)Nc2cc(S(=O)(=O)N3CCOCC3)ccc2OC(C)C)cc1
 : -4.6%	.	.	-22%
#48 Cc1ccc(S(=O)(=O)Nc2ccc(Cl)cc2)cc1NC(=O)c1cc2c(s1)CCCC2
 : -3.9%	-15	15%	-5%
#49 Nc1cc([N+](=O)[O-])ccc1N1C(=O)CCCC1=O
 : 2.6%	-1	-5%	-6%
#50 CCC(=O)Nc1cc(C(=O)OCC(=O)c2ccccc2Cl)ccc1C
 : 3.5%	-2	-60%	-1%
#51 CC1CC(C)CN(CCOc2ccc(Br)cc2)C1 (stereo not drawn)
 : -1.5%	-1	-7%	4%
#52 COc1cc(NC(=S)NC(=O)c2ccc(C(C)(C)C)cc2)ccc1NC(=O)c1cccs1
 : 1.6%	-5	-10%	?
